FEN1 inh: inhibitors of human flap endonuclease 1 | P39748 | Recombinant FEN1 flap cleavage, fluorescence, 15 min | Potency, µM (titrated, usually from 114 µM), without a hit: top-dose activity change, negative = inhibition, usual class: inhibitors | 390,000 tested, 0.35% active | AID 588795; further: nearly all actives have a fitted effect of over 65% in size
Target sequence (P39748 whole entry, looked up): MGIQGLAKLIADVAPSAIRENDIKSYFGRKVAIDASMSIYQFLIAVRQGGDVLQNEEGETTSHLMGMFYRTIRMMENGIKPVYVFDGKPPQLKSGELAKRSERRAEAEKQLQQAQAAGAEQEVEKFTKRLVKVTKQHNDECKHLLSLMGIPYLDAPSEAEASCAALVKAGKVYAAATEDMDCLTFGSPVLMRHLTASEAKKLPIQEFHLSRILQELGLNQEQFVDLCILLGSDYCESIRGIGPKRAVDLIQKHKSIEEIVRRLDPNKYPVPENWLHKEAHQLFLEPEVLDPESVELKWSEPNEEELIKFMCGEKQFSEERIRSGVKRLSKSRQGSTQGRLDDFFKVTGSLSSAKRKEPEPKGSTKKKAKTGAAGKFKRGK
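Compounds are tested as a concentration series against 10 nM FEN1; after a 15 min room-temperature preincubation, 50 nM substrate starts cleavage, with plate reads at 0 and 15 min. Normalized responses are fitted by a Hill equation.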
N370S GC mod: inhibits or activates N370S mutant glucocerebrosidase | P04062 | N370S GC spleen homogenate, 4MU-glucoside fluorescence | Potency, µM (doses to about 59.4 µM), inactives show top-dose activity change, negative = inhibition, most hits filed as inhibitors | 330,000 tested, 0.092% active;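 further: 0% = full enzyme activity and -100% = no enzyme basal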
Numbers without * were called inactive; u = inconclusive; x = no result given; & = joins results of further samples. The call rests on the fitted dose curve; in most records, active means well fitted curve in the direction sought with a large enough effect; inconclusive means small, poorly fitted or top-dose-only effect, or another doubt; inactive means no such curve, though single readings can be large; an effect the other way counts as inactive or inconclusive. Unless noted, on the % scale 0 is the no-effect control and ±100 the full control effect; potency means the concentration at half of the fitted maximal effect.

SMILES | FEN1 inh | N370S GC mod
COc1cc(C)c(Cl)cc1S(=O)(=O)NCc1ccco1 | 5% | 3%
CCOC(=O)N/N=C/c1cn(Cc2ccc(F)cc2)c2ccccc12 | -3% | 2%
COc1ccccc1C(=O)NN=C1CCN(Cc2ccccc2)CC1 | 8% | -4%
Cc1ccccc1OCC1Cn2c(nc3c2c(=O)n(C)c(=O)n3C)O1 (configuration not stated) | 9% | 0%
Cc1ccc(CSc2nnc(-c3ccccn3)n2N)cc1 | 2% | 4%
C/C(=N\O)C(=O)NCC1CCNCC1 | 7% | 5%
Cc1ccc(CN(C(=O)Cn2nnc3ccccc32)C(C(=O)NCc2ccco2)c2ccc(C)o2)cc1 (configuration not stated) | 0% | -3%
CCOC(=O)c1[nH]c2ccccc2c1NC(=O)CN(C)C | -2% | 2%
COc1ccc(CCNC(=O)C2CCN(C(=O)c3ccccc3)CC2)cc1 | 0% | 4%
O=[N+]([O-])c1ccccc1S(=O)(=O)N1CCN(C2CCN(Cc3ccccc3)CC2)CC1 | 2% | 9%
CC(C)(C)OC(=O)C[C@H]1C/C=C\C[C@H](CC(=O)NCCO)C(=O)NCCOC1=O | -11% | x
CCc1nc(NC2CCCCC2)c(C#N)c2c1COC(C)(C)C2 | -6% | u
Cc1ccccc1NC(=O)Cc1nc(COC(=O)COc2ccc(C(C)(C)C)cc2)cs1 | -32% | x
Cn1c(=O)n(CC(=O)NCC2CCCO2)c(=O)c2c3c(sc21)COC(C)(C)C3 (configuration not stated) | -3% | -6%
CCSc1nc(=S)n(-c2ccccc2)c(C)c1C(C)=O | 2% | 3%
Cn1cnc(S(=O)(=O)N2CCCC(C(=O)NCc3ccccc3Cl)C2)c1 (configuration not stated) | 2% | x
CCN(CC)S(=O)(=O)c1cc(C(=O)N(C)CC(=O)Nc2ccc(Cl)cc2)ccc1Cl | -10% | 6%
COc1ccc2[nH]c3c(c2c1)CCN1C(=O)C(CC(=O)NC(C)(C)C)C[C@H](C(=O)N2CCCCC2)[C@@]31CCc1ccccc1 (some centres not stated) | -29% | x
O=C(NCc1cccc(Cl)c1)c1cnccn1 | 4% | 6%
Cc1c(Cl)cccc1NC(=O)CCN1CCCCCC1 | -6% | -4%
COc1ccccc1NC(=O)COn1nnc2ccc(S(=O)(=O)N3CCOCC3)cc21 | 6% | -7%
O=C(Nc1cccnc1)c1cc(-c2ccc(F)cc2)on1 | -2% | -2%
O=C(Nc1c(O)c2ccccc2oc1=O)c1ccccc1Cl | -3% | x
O=C(Oc1ccc(F)cc1)c1nc(SCc2ccccc2F)ncc1Cl | 9% | x
COCCNC(=O)c1ccc(-n2c(SCc3cc(F)ccc3F)nc3ccccc3c2=O)cc1 | -2% | -1%
O=C(OCc1c(Cl)cccc1Cl)c1ccccn1 | 2% | -19%
O=S(=O)(c1cccs1)n1cccn1 | -2% | 4%
Cc1noc(C)c1COc1ccc(C(=O)OCC(=O)Nc2cccc(S(=O)(=O)N3CCOCC3)c2)cc1 | -7% | -7%
CCc1cccc(NC(=O)c2cc(S(=O)(=O)N(C)C)ccc2N2CCCC2)c1 | -15% | 14%
COc1ccc(-c2ocnc2C(=O)NCc2nn(-c3ccccc3)nc2C)cc1 | u | 13%
CCN(CC)S(=O)(=O)c1ccc(N2CCc3ccccc3C2)nc1 | 6% | -26%
O=C(COc1ccccc1)NCC(=O)N1CCCCCC1 | -1% | x
COc1ccc2[nH]c3c(c2c1)CCN1C(=O)C(CC(=O)NCc2ccco2)C[C@H](C(=O)N2CCCCC2)[C@@]31CCc1ccccc1 (some centres not stated) | -15% | x
Cc1ccc2cc(COC(=O)C3CCCO3)c(=O)[nH]c2c1 (configuration not stated) | -1% | 6%
COc1ccccc1CC(=O)Nc1cc(C)ccn1 | 2% | 3%
O=c1oc(C2(O)CCCCC2)cc2ccc(Br)cc12 | -9% | x
COc1ccc(S(=O)(=O)N(C)C[C@@H]2Oc3ccc(NC(=O)Nc4c(C)noc4C)cc3C(=O)N([C@H](C)CO)C[C@@H]2C)cc1 | -7% | x
CCOC(=O)N1CCN(c2nc(-c3ccc(OC)cc3)no2)CC1 | -1% | -16%
CCOC(=O)c1c(NC(=O)CSc2ncn[nH]2)sc(C(C)=O)c1C | -16% | 1%
CC(Sc1ccccc1)C(=O)Nc1ccc(N2CCOCC2)cc1 (configuration not stated) | -4% | 5%

An excerpt from above in order of count of non-hydrogen atoms, ascending.
SMILES | FEN1 inh | N370S GC mod
O=c1oc(C2(O)CCCCC2)cc2ccc(Br)cc12 | -9% | x
Cc1ccc2cc(COC(=O)C3CCCO3)c(=O)[nH]c2c1 (configuration not stated) | -1% | 6%
CCN(CC)S(=O)(=O)c1ccc(N2CCc3ccccc3C2)nc1 | 6% | -26%
O=C(Oc1ccc(F)cc1)c1nc(SCc2ccccc2F)ncc1Cl | 9% | x
COc1ccc2[nH]c3c(c2c1)CCN1C(=O)C(CC(=O)NCc2ccco2)C[C@H](C(=O)N2CCCCC2)[C@@]31CCc1ccccc1 (some centres not stated) | -15% | x

The listing continues:
SMILES | FEN1 inh | N370S GC mod
COc1ccc(CN2CCCC(C(=O)Nc3cccc(-n4cccn4)c3)C2)c(F)c1 (configuration not stated) | -23% | -5%
COCCN(C(=S)Nc1cccc(C)c1)C(C)c1cccs1 (configuration not stated) | -15% | 1%
CCCN(CC(=O)Nc1ccccc1OC)C(=O)CCC(=O)c1ccc(Cl)s1 | 15% | x
O=C(CCC1CCCCC1)NCc1ccccn1 | 1% | 2%
Cc1ccc(NC(=O)c2ccc(F)cc2F)cc1NS(C)(=O)=O | -5% | 7%
CN(CC(=O)Nc1ccccc1Cl)C(=O)CSc1nnc(-c2ccco2)o1 | 3% | 2%
CC(=O)NC1=NC(=O)/C(=C/c2cc(C)n(-c3ccc(NC(C)=O)cc3)c2C)S1 | 2% | -13%
COc1ccc2c(CNCCc3ccccc3C)c(C(=O)O)n(Cc3ccccc3C)c2c1 | 1% | x
Cc1cc(F)ccc1NC(=O)c1ccc(NS(=O)(=O)c2cc(C(C)(C)C)ccc2C)cc1 | -16% | u
CC(=O)Nc1ccc(S(=O)(=O)N2c3ccccc3C(C)=CC2(C)C)cc1 | 14% | 15%
CCO[C@H]1OC(C(N)=O)=C[C@@H](C2CCCCC2)[C@@H]1CCCO | 3% | -3%
CCOC(=O)c1ccc(Oc2nc(SC)nc(N(C)C)n2)cc1 | 7% | 0%
CN(C)CCNC(=O)C1CCN(S(=O)(=O)c2ccc3ccccc3c2)CC1 | 14% | -3%
CCOc1ccccc1N(C(=O)c1snc(C(N)=O)c1N)C(C(=O)NCCC(C)C)c1ccco1 (configuration not stated) | -9% | u
C[N+](C)(C)CCNC(=O)c1cc[n+](Cc2ccccc2)c(/C=N/O)c1 | 16% | -6%
COc1ccc(C2C3=C(CC(C)(C)CC3=O)Oc3ncn(CCCn4ccnc4)c(=N)c32)cc1 (configuration not stated) | 9% | 5%
CC(=O)c1cccc(N(C(=O)Cn2nnc3ccccc32)C(C(=O)NC2CCCCC2)c2cn(C)nc2C)c1 (configuration not stated) | -16% | 0%
C/C(=C(\C#N)C(=O)NCc1ccccc1)N(C)C | -5% | 1%
Cc1ccccc1/C=N\NC(=O)c1ccc(Cn2cccn2)o1 | -2% | -5%
COC(=O)c1nc2cc3c(cc2c(C)c1C(=O)OC)OCO3 | 9% | 1%
CC12CN(Cc3ccccc3)CC(C)(CN(Cc3ccccc3)C1)C2=O | -5% | -11%
CCCCC(=O)N(CCOC)c1nnc(-c2ccccc2C)s1 | -1% | 3%
COc1ccc2[nH]c(C)c(CCNC(=S)Nc3cccc(C)c3)c2c1 | 2% | 17%
Cc1nn(-c2ccccc2)c(C)c1C(=O)OCC(N)=O | -3% | 4%
COc1cc(/C=C\C(=O)OCn2nnc3ccccc3c2=O)cc(OC)c1OC | -6% | 9%
CC(C)NC(=O)c1ccc2c(c1)N(CC(=O)N1CCOCC1)C(=O)C(C)(C)O2 | -2% | 7%
Cc1nc(-c2ccc(Cl)cc2)sc1CCNC(=O)C(=O)Nc1ccc(F)cc1F | 2% | x
Cc1ccc(-c2nc(N)n(S(C)(=O)=O)n2)cc1 | 1% | 7%
CC(C)CCNC(=O)c1cn(C)c2ccc(S(=O)(=O)N3CCCC3)cc2c1=O | 17%&13% | 1%
Cc1cc(C)c(C(=O)Nc2ccc(C)c(C)c2)c(CC(C)(C)C(=O)O)c1 | -1% | -14%
CNC(=O)CSc1nnc(SCCC(=O)O)s1 | -7% | 8%
Cc1nn(Cc2ccc(Cl)cc2Cl)c(C)c1NC(=O)c1nc2n(n1)C(C(F)F)CC(C)N2 (configuration not stated) | -11% | 4%
O=c1[nH]c2cc3c(cc2cc1CN(Cc1ccc2c(c1)OCO2)Cc1nnnn1CC1CCCO1)OCO3 (configuration not stated) | -3% | -10%
Cc1ccc(C)c(OCCC(=O)OCc2csc(CC(=O)Nc3ccccc3C)n2)c1 | -7% | -8%
CC(C)c1cc(C(=O)Nc2ccc3c(c2)OCO3)no1 | -7% | 3%
COc1c(/C=N/NC(=O)c2ccncc2)c(CCN(C)C(C)=O)cc2c1OCO2 | -13% | 3%
O=C(C[n+]1ccc2c(c1)nnn2-c1ccccc1)c1ccc(Cl)cc1 | 1% | -10%
Cc1cccc(N2CCN(S(=O)(=O)c3ccc(S(=O)(=O)N4CCCC4)cc3)CC2)c1C | 7% | 0%
O=C(Cc1ccccc1)c1c[nH]c(C(=O)O)c1 | 4% | 8%
O=C(Nc1cc(S(=O)(=O)N2CCCCC2)ccc1Cl)c1ccncc1 | -5% | x
O=c1ccc(/C=C/c2ccccc2)nn1Cc1ccccc1Cl | -1% | u
CCN(CC(=O)Nc1c(F)cccc1F)C(=O)c1cccc(S(=O)(=O)NCc2ccccc2)c1 | 2% | -9%
COc1ccc(OC)c(-c2cc(C3CCN(C(=O)OC(C)(C)C)CC3)[nH]n2)c1 | -22% | 13%
CCOc1ccc2nc(N3CCCC(C(=O)Nc4ccc(OC)c(Cl)c4)C3)sc2c1 (configuration not stated) | 4% | x
COc1ccc(/C=N/NC(=O)c2ccccc2O)cc1Cn1nnc2ccccc21 | -4% | -5%
Oc1ccc(Cl)cc1Sc1cc(Cl)ccc1O | -25% | -22%
O=C(c1nc2nc(-c3ccccc3)cc(C(F)(F)F)n2n1)N1CCCCC1 | -11% | 17%
Cc1ccccc1CNC(=O)c1cccc(NC(=O)c2nsc3ccccc23)c1 | 9% | x
CN(C)CC/C=C1/c2ccccc2COc2ccccc21 | x | 2%&-10%
c1ccc2c(c1)C(=NCC1CCCO1)NC2=NCC1CCCO1 (configuration not stated) | -15% | 9%
Cc1ccc(-n2cnc3cc(NCc4cccs4)ccc32)cc1 | -14% | 16%
O=C(NCC(c1cccs1)N1CCOCC1)c1ccccc1NS(=O)(=O)c1cccc([N+](=O)[O-])c1 (configuration not stated) | 0% | -25%
COc1ccc(Cl)cc1Nc1nc(C)cc(=O)[nH]1 | -13% | -16%
CCNC(=O)NC(=O)CSc1cccc(C(F)(F)F)c1 | 2% | 2%
Cc1ccc(NC(=O)/C(CN(C)C)=N\O)cc1 | -13% | 0%
CCOC(=O)c1[nH]c2ccccc2c1CCCN1C(=O)c2ccccc2C1=O | -18% | 18%
Cc1nn(CCO)c(C)c1Oc1ccccc1O | 2% | 0%
O=C(COC(=O)c1ccc([N+](=O)[O-])s1)Nc1ncc(C(F)(F)F)cc1Cl | u | -10%
Cc1c(C(=O)C(=O)NCC2CCCO2)c2ccccc2n1C (configuration not stated) | 1% | -3%
Cc1sc(NC(=O)Cc2ccc3c(c2)OCO3)nc1-c1ccc2c(c1)CCN2C(=O)c1ccc(F)cc1 | -4% | 4%

(listing goes on)
SMILES | FEN1 inh | N370S GC mod
CC(C)CC(NC(=O)C(NC(=O)C1OC2OC(C)(C)OC2C2OC(C)(C)OC12)C(C)C)C(=O)O (configuration not stated) | 3% | -2%
O=C(NCc1ccccn1)c1ccc(OC2CCN(Cc3ccccc3O)CC2)cc1 | -8% | -2%
COc1ccc(OC)c(NC(=O)COC(=O)CC2CCCCC2)c1 | -2% | x
O=C(Nn1cnc2ccccc2c1=O)c1ccc([N+](=O)[O-])cc1 | 7% | -13%
Cc1cc(C)n2cc(CSc3nc4ccccc4s3)nc2n1 | 3% | -7%
C=CCNC(=S)NNC(=O)c1ccncc1 | -1% | -9%
O=C(Cn1c(=O)sc2ccccc21)OC(CCl)CCl | -3% | 8%
O=C1c2ccccc2-c2nccnc21 | 2% | -26%
COc1ccc(-c2c(S(=O)(=O)c3ccccc3)cnn2-c2ccccc2)cc1 | 10% | 17%
CCOc1ccc(NC(=S)N(CCc2c(C)[nH]c3ccccc23)Cc2cccnc2)cc1 | -14% | 7%
O=C(Nc1ccc(C(F)(F)F)cc1)C1CCCN(S(=O)(=O)c2cccc3cccnc23)C1 (configuration not stated) | -4% | x
COc1cccc(C(=O)Nc2nc(-c3ccc(Br)cc3)ns2)c1 | 15% | x
FC(F)Sc1nnc(-c2cccs2)n1-c1ccccc1 | 0% | 5%
COc1ccc(-c2nc(-c3cccc(C)c3)[nH]c(=O)c2C#N)cc1 | 4% | 29%

Screening results as filed in PubChem.

A portion of the library; most or all hits stand in other tables.
